Vaccinia inh – blocks a specific stage of Vaccinia orthopoxvirus infection; Vaccinia-infected cells, mCherry/Venus stage reporter fluorescence; hits give low values; some inactives read as strong as hits; activity change (mCherry), % (no concentration beside the values); actives 0.01% (n = 89,000); AID 1053133;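 active = mCherry past -33% and 40 or more points under the early reporter, replicates agreeing; inconclusive = past -33% without that gap or agreement; tested in A549 cells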;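 note: scaled between vehicle wells and reference inhibitor wells; 23 nL library stock went into each well; one replicate is shown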
Vaccinia inh Venus – second read-out of Vaccinia inh, no call of its own (marks repeat the call); activity change (Venus), %; measured here: Venus reporter, other viral stage;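 negative = less Venus signal; first of two replicates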
* = called active by the depositor; ? = inconclusive; · = not tested or not shown. This is a subset; count on the stated rates, not on these rows.

SMILES	Vaccinia inh	Vaccinia inh Venus
Cn1cnc(S(=O)(=O)N2C[C@H](O)COC[C@@H]3O[C@@H](CC(=O)NCc4ccc(F)cc4)CC[C@H]32)c1	4	-1
C/C=C/c1cnc2c(c1)C(=O)N([C@H](C)CO)C[C@@H](C)[C@@H](CN(C)C(=O)Nc1cccc(OC)c1)O2	6	6
CN(C)CC#Cc1ccc([C@H]2[C@H]3CN(C(=O)c4ccc(F)cc4)CC(=O)N3[C@H]2CO)cc1	15	4
N#C[C@@H]1[C@@H](c2ccc(C#Cc3ccccc3F)cc2)[C@H](CO)N1C(=O)C1CCCCC1	-25	-23
COc1ccc2c3c(n(C)c2c1)[C@H](CO)N(C)CC31CCN(S(=O)(=O)c2cccs2)CC1	-17	-18
CO[C@@H]1CN(C)C(=O)c2cc(NC(=O)C3CCC3)ccc2OC[C@@H](C)N(C(=O)Nc2ccc(C(F)(F)F)cc2)C[C@H]1C	?	·
Cc1ccc(S(=O)(=O)Nc2ccc3c(c2)CC(=O)N([C@H](C)CO)C[C@H](C)[C@@H](CN(C)C(=O)NC2CCCCC2)O3)cc1	-25	-25
Cn1cnc(CCNC(=O)C[C@H]2CC[C@H]3[C@@H](COC[C@@H](O)CN3C(=O)Nc3ccc(C(F)(F)F)cc3)O2)c1	-7	-1
CN(C)CC(=O)Nc1ccc2c(c1)[C@H]1C[C@H](CC(=O)NCc3ccccn3)O[C@@H](CO)[C@H]1O2	7	9
O=C(NCCc1ccncc1)[C@H]1[C@H](CO)[C@H]2Cn3c(ccc(-c4ccccc4)c3=O)[C@H]2N1C(=O)C1CC1	9	12
Cc1noc(C)c1NC(=O)NCC[C@H]1CC[C@@H](NC(=O)Nc2cccc(F)c2)[C@H](CO)O1	-8	-13
CN1C(=O)c2cc(NC(=O)C3CCOCC3)ccc2OC[C@@H]2O[C@@H](CC(=O)O)CC[C@H]21	7	9
CNC[C@H]1Oc2ccc(NS(=O)(=O)c3cccs3)cc2CC(=O)N([C@H](C)CO)C[C@@H]1C	-15	-7
COc1ccc(NC(=O)Nc2ccc3c(c2)CC(=O)N([C@H](C)CO)C[C@H](C)[C@H](CN(C)S(=O)(=O)c2ccc(F)cc2)O3)cc1	-15	-11
C[C@H]1CN([C@@H](C)CO)C(=O)c2cc(C#CCc3ccccc3)cnc2O[C@H]1CN(C)C(=O)C1CCC1	16	23
COCCNC(=O)C[C@H]1CC[C@H]2[C@H](COc3ccc(NC(=O)Nc4ccccc4)cc3C(=O)N2C)O1	6	2
COc1cccc(C(=O)Nc2ccc3c(c2)OC[C@@H](C)N(C(C)=O)C[C@@H](C)[C@@H](OC)CN(C)C3=O)c1	11	10
CCCNC(=O)C[C@@H]1CC[C@H]2[C@@H](COC[C@H](O)CN2C(=O)CC)O1	19	10
O=C(C[C@@H]1CC[C@@H]2[C@H](COC[C@@H](O)CN2C(=O)Nc2ccc(F)cc2)O1)NCCCN1CCOCC1	-5	-13
COc1ccccc1NC(=O)N(C)C[C@H]1OCc2cn(nn2)CCCC(=O)N([C@H](C)CO)C[C@@H]1C	12	-3

Arranged by number of heavy atoms (descending): some entries from above
SMILES	Vaccinia inh	Vaccinia inh Venus
COc1ccc(NC(=O)Nc2ccc3c(c2)CC(=O)N([C@H](C)CO)C[C@H](C)[C@H](CN(C)S(=O)(=O)c2ccc(F)cc2)O3)cc1	-15	-11
Cc1ccc(S(=O)(=O)Nc2ccc3c(c2)CC(=O)N([C@H](C)CO)C[C@H](C)[C@@H](CN(C)C(=O)NC2CCCCC2)O3)cc1	-25	-25
Cn1cnc(CCNC(=O)C[C@H]2CC[C@H]3[C@@H](COC[C@@H](O)CN3C(=O)Nc3ccc(C(F)(F)F)cc3)O2)c1	-7	-1
O=C(NCCc1ccncc1)[C@H]1[C@H](CO)[C@H]2Cn3c(ccc(-c4ccccc4)c3=O)[C@H]2N1C(=O)C1CC1	9	12
COCCNC(=O)C[C@H]1CC[C@H]2[C@H](COc3ccc(NC(=O)Nc4ccccc4)cc3C(=O)N2C)O1	6	2
COc1ccccc1NC(=O)N(C)C[C@H]1OCc2cn(nn2)CCCC(=O)N([C@H](C)CO)C[C@@H]1C	12	-3
Cn1cnc(S(=O)(=O)N2C[C@H](O)COC[C@@H]3O[C@@H](CC(=O)NCc4ccc(F)cc4)CC[C@H]32)c1	4	-1
CN(C)CC(=O)Nc1ccc2c(c1)[C@H]1C[C@H](CC(=O)NCc3ccccn3)O[C@@H](CO)[C@H]1O2	7	9
COc1ccc2c3c(n(C)c2c1)[C@H](CO)N(C)CC31CCN(S(=O)(=O)c2cccs2)CC1	-17	-18
CNC[C@H]1Oc2ccc(NS(=O)(=O)c3cccs3)cc2CC(=O)N([C@H](C)CO)C[C@@H]1C	-15	-7

Next part.
SMILES	Vaccinia inh	Vaccinia inh Venus
CO[C@H]1CC[C@H]2CCOc3ccc(C#N)cc3C(=O)N(C)C[C@H](c3ccccc3)CC(=O)N(C)C[C@H]1O2	9	-2
Cc1noc(C)c1S(=O)(=O)N(C)C[C@H]1Oc2c(NC(=O)c3nc4ccccc4s3)cccc2C(=O)N([C@@H](C)CO)C[C@H]1C	-6	0
CN1CCN(C(=O)C[C@@H]2CC[C@@H]3[C@H](COC[C@@H](O)CN3C(=O)Cc3ccccc3)O2)CC1	14	7
O=C(C[C@@H]1CC[C@@H](NC(=O)Nc2cccc(F)c2)[C@@H](CO)O1)NCC1CCCCC1	-20	-11
O=C(C1CCCCC1)N1CC(=O)N2[C@H](CO)[C@H](c3ccc(C#Cc4cccc(F)c4)cc3)[C@H]2C1	?	·
COc1ccc(NC(=O)N(C)C[C@H]2Oc3ccc(NC(=O)CCN4CCOCC4)cc3CC(=O)N([C@H](C)CO)C[C@@H]2C)cc1	5	3
CCO[C@@H]1OC(C(=O)N2CCN(Cc3ccc4c(c3)OCO4)CC2)=C[C@H](c2csc3ccccc23)[C@H]1CCCO	-34	-25
O=C(Nc1ccc(F)cc1)N1CC(=O)N2[C@H](C1)[C@H](c1ccc(-c3ccc(F)cc3)cc1)[C@@H]2CO	?	·
CC=Cc1ccc2n(c1=O)C[C@H]1[C@H](CO)[C@@H](C(=O)NCCCN3CCOCC3)N(C)[C@@H]21 (mixture of isomers)	11	19
O=C(Nc1ccc(F)cc1)N1C[C@@H]2[C@H](c3ccccc31)[C@H](CO)N2C(=O)Cc1ccccc1	9	5
CN(C)CC(=O)N1CC[C@@H]2[C@H](CO)Nc3ccc(-c4ccc(C(=O)N(C)C)cc4)cc3[C@@H]21	21	26
C[C@H]1CN([C@@H](C)CO)C(=O)Cc2cc(NC(=O)CCC(F)(F)F)ccc2O[C@@H]1CN(C)C(=O)Nc1ccc2c(c1)OCO2	3	2
CNC[C@@H]1Oc2ccc(NC(=O)CCN3CCOCC3)cc2CC(=O)N([C@@H](C)CO)C[C@@H]1C	14	7
CN1C(=O)c2cc(NC(=O)C3CCCCC3)ccc2OC[C@H]2O[C@@H](CC(=O)NCc3ccccc3F)CC[C@H]21	3	-1
C/C=C/c1ccc2c(c1)O[C@H](CN(C)C(=O)CC)[C@@H](C)CN([C@@H](C)CO)S2(=O)=O	7	7
CC(C)NC(=O)N(C)C[C@@H]1Oc2cc(C3=CCCCC3)ccc2S(=O)(=O)N([C@H](C)CO)C[C@@H]1C	-21	-12
O=C(NCC[C@@H]1CC[C@@H](NC(=O)C2CC2)[C@H](CO)O1)Nc1ccc(Cl)cc1	-4	-7
N#Cc1ccc(-c2ccc([C@@H]3[C@@H](CO)N4C(=O)CN(C(=O)C5CC5)C[C@H]34)cc2)cc1	-16	-6
Cc1ccccc1S(=O)(=O)N(C)C[C@@H]1OCc2cn(nn2)CCCC(=O)N([C@@H](C)CO)C[C@@H]1C	19	18
CCCC#Cc1ccc2c(c1)[C@@H]1[C@@H](CCN1S(=O)(=O)c1cccc(F)c1)[C@@H](CO)N2C	-2	2
O=C(C[C@H]1CC[C@@H](NC(=O)C2CC2)[C@H](CO)O1)Nc1ccccc1	-7	-12
CCN(C[C@H]1N[C@H](CO)[C@H]1c1ccc(C2=CCCC2)cc1)C(=O)c1ccncc1	-23	-18
COc1cccc(S(=O)(=O)N[C@@H]2C=C[C@H](CC(=O)NCc3ccc(F)cc3)O[C@H]2CO)c1	7	7
COc1cccc(S(=O)(=O)N[C@H]2CC[C@@H](CCn3cc(-c4ccccc4OC)nn3)O[C@H]2CO)c1	-19	-13
CCCNC(=O)N1[C@H](CO)[C@@H]2c3ccccc3N(C(=O)Nc3cccc(F)c3)C[C@@H]21	3	11
CCCNC(=O)C[C@H]1CC[C@@H]2[C@@H](COc3ccc(NC(=O)c4cc(C)on4)cc3C(=O)N2C)O1	0	6
O=C(C1CCC1)N1CC[C@@H]2[C@H]1c1cc(C#Cc3ccc(F)cc3)ccc1N[C@@H]2CO	-35	-14
CNC[C@H]1Oc2ccc(NC(=O)CCCN(C)C)cc2C(=O)N([C@@H](C)CO)C[C@@H]1C	8	17
COc1ccc(S(=O)(=O)Nc2ccc3c(c2)C(=O)N([C@@H](C)CO)C[C@H](C)[C@@H](CN(C)C(=O)Nc2ccc(C(F)(F)F)cc2)OCCCC[C@H](C)O3)cc1	-25	-18
OC[C@@H]1[C@@H](c2ccc(-c3ccc(F)cc3)cc2)[C@H]2CN(Cc3cccnc3)CCCCN12	-11	-13
C[C@@H]1CN([C@H](C)CO)C(=O)c2c(c3ccccc3n2C)-c2ccccc2CO[C@H]1CN(C)Cc1ccc(Cl)c(Cl)c1	?	·
C[C@H](CO)N1C[C@H](C)[C@@H](CN(C)Cc2ccc(C(F)(F)F)cc2)Oc2ccc(NS(=O)(=O)c3ccc(F)cc3)cc2CC1=O	?	·
C[C@H](CO)N1C[C@H](C)[C@@H](CN(C)C(=O)Nc2ccc3c(c2)OCO3)Oc2c(NC(=O)c3nc4ccccc4s3)cccc2C1=O	-10	-3
Cc1noc(C)c1NC(=O)Nc1ccc2c(c1)C(=O)N([C@H](C)CO)C[C@H](C)[C@H](CN(C)Cc1ccc(C(F)(F)F)cc1)OCCCC[C@@H](C)O2	0	6
C[C@H](NC(=O)C[C@@H]1C=C[C@H](NC(=O)Cc2ccccn2)[C@H](CO)O1)c1ccccc1	9	7
COCC(=O)Nc1ccc2c(c1)OC[C@@H](C)N(C(=O)Cc1ccccn1)C[C@@H](C)[C@H](OC)CN(C)C2=O	-4	-3
CC(=O)N(C)C[C@H]1Oc2cc(-c3ccccc3F)ccc2S(=O)(=O)N([C@@H](C)CO)C[C@@H]1C	1	3
C[C@@H]1CN([C@H](C)CO)C(=O)c2cc(NC(=O)Cc3ccccc3)ccc2O[C@@H]1CN(C)Cc1ccc(C(=O)O)cc1	23	8
COc1ccc(S(=O)(=O)Nc2cccc3c2O[C@H](CN(C)C(=O)Nc2ccc4c(c2)OCO4)[C@@H](C)CN([C@@H](C)CO)C3=O)cc1	11	14
COc1ccc2c3c([nH]c2c1)[C@@H](CO)N(C(=O)Cc1ccccc1)CC31CN(C(=O)Cc2ccccc2)C1	12	3
Cn1cnc(S(=O)(=O)N2CCCCN3[C@H](CO)[C@@H](c4ccc(C#CC5CC5)cc4)[C@H]3C2)c1	7	-1
CC=Cc1ccc2n(c1=O)C[C@@H]1[C@@H](CO)[C@H](C(=O)NCCc3ccncc3)N(CCC(F)(F)F)[C@H]21 (mixture of isomers)	-2	5
COC(=O)C[C@@H]1C[C@H]2c3cc(NC(=O)Nc4ccc(C(F)(F)F)cc4)ccc3O[C@H]2[C@H](CO)O1	-30	-27
CN1c2ccc(-c3ccccc3)cc2[C@@H]2[C@@H](CCN2C(=O)c2cccc(F)c2)[C@@H]1CO	-22	-15
O=C(C[C@@H]1C=C[C@@H](NC(=O)Cc2cccnc2)[C@H](CO)O1)NCc1ccc2c(c1)OCO2	20	18
O=C(C[C@H]1CC[C@@H](NC(=O)Nc2cccc(F)c2)[C@@H](CO)O1)NCC1CC1	-10	-9
CC(C)NC(=O)Nc1cccc2c1O[C@H](CN(C)S(=O)(=O)c1ccc(Cl)cc1)[C@H](C)CN([C@H](C)CO)C2=O	3	0
Cc1noc(C)c1S(=O)(=O)Nc1ccc2c(c1)CC(=O)N([C@H](C)CO)C[C@H](C)[C@H](CN(C)CC1CCCCC1)O2	0	10
CC(C)CC#Cc1ccc2c(c1)O[C@H](CN(C)C(=O)NC(C)C)[C@@H](C)CN([C@H](C)CO)S2(=O)=O	-10	1
C[C@@H]1CN([C@H](C)CO)C(=O)c2cc(NC(=O)Nc3ccc4c(c3)OCO4)ccc2O[C@@H](C)CCCCO[C@H]1CN(C)S(=O)(=O)c1ccc(F)cc1	-5	-4
C[C@@H]1CN([C@@H](C)CO)C(=O)c2cc(NS(=O)(=O)c3ccc(Cl)cc3)ccc2O[C@@H](C)CCCCO[C@@H]1CN(C)S(=O)(=O)c1cn(C)cn1	2	2
CO[C@@H](CN(C)C(=O)c1cnccn1)[C@H](C)CN([C@@H](C)CO)S(=O)(=O)c1ccc(F)cc1	8	15
CCC(=O)N(C)C[C@@H]1Oc2cc(C#Cc3cccnc3)ccc2S(=O)(=O)N([C@@H](C)CO)C[C@H]1C	2	2
CCCC#Cc1ccc([C@H]2[C@H](CO)N3CCCCN(S(=O)(=O)CC)C[C@@H]23)cc1	20	1
O=C(C[C@@H]1CC[C@@H](NC(=O)C2CCOCC2)[C@@H](CO)O1)Nc1ccc(-c2ccccc2)cc1	-9	-5
COc1ccc(S(=O)(=O)Nc2ccc3c(c2)C(=O)N([C@H](C)CO)C[C@@H](C)[C@H](CN(C)S(=O)(=O)c2cccs2)OCCCC[C@H](C)O3)cc1	?	·
O=C(c1ccccc1)N1CC(=O)N2[C@H](C1)[C@H](c1ccc(C#CCC3CCCC3)cc1)[C@@H]2CO	?	·
CCC(=O)N(CC1CCC1)C[C@@H]1[C@@H](c2ccccc2)[C@H](CO)N1C(C)=O	4	7
C[C@H]1CN([C@@H](C)CO)C(=O)c2cccc(NC(=O)Nc3ccc(C(F)(F)F)cc3)c2O[C@@H]1CN(C)Cc1ccc(Oc2ccccc2)cc1	-4	-4
O=C(C1CCCCC1)N1CC(=O)N2[C@H](C1)[C@@H](c1ccc(C#CCc3ccccc3)cc1)[C@@H]2CO	3	-7
